Screening results deposited in PubChem by several laboratories.
Ecoli rRNA inh – inhibitors of bacterial rRNA selective over humanized ribosomes | E. coli WT GFP vs humanized-ribosome RFP mutants, fluorescence, 24 h; active compounds read low; DMSO median 0, no signal -100 | GFP signal change (wild-type ribosome), % (test concentration not listed) | actives 1.6% (n = 350,000);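 active = significant combined selectivity score with lowered wild-type GFP, culture density cut under 30%, mutant RFP and density less affected; inactive = any of these conditions unmet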; note: one replicate is shown; some compounds called inactive have numbers as strong as hits
A1 inh – inhibitors of the anti-apoptotic protein A1, read as caspase activation; MEF A1-2A-BIM cells, Caspase-Glo 3/7 luminescence, 3 h; percent of clofoctol response, vehicle zero; caspase activation, % (concentration not given with the values); actives 0.066% (n = 330,000); AID 2462;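 active = over half of replicate activation scores above 10%, or exactly half above 10 with the replicate mean above 10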;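 note: wells of about 30 µL received 50 nL stock; many hits fall short of the cut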
Ecoli growth – blocks Escherichia coli growth; OD600, 23 h; active compounds read low; OD600 absorbance (concentration not given with the values); actives 0.21% (n = 330,000); AID 1053175;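 active = OD600 absorbance below the run mean of sample wells minus 3.6 SD, in any replicate, cut at about 0.56 in these data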;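 note: stock transfer was 300 nL into about 60 µL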
UCH37 DUB inh – human UCH37 deubiquitinating enzyme inhibition | purified proteasome/UCH37, Ub-AMC cleavage fluorescence | actives 0.33% (n = 330,000) | AID 588478 | Q9Y5K5 | inhibition, % (no concentration beside the values);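 active = mean of two replicates above 20%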;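 note: 0% = compound-free wells with enzyme and 100% = wells lacking proteasome; stock transfer was 100 nL into about 20 µL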
Target sequence (Q9Y5K5 whole entry, looked up): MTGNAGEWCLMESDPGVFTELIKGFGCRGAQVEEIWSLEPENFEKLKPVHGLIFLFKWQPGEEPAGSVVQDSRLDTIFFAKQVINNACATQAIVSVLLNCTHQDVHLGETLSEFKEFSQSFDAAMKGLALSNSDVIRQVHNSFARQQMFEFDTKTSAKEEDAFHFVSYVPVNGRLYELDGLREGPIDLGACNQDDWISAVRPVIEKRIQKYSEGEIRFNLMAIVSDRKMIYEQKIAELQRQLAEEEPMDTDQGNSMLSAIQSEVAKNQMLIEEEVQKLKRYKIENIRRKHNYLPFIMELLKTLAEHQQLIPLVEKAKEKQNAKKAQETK
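Assay system: Proteasome-bound UCH37. Buffer or medium: pH 7.4 Tris-HCl (50 mM) with ovalbumin, ATP-MgCl2, DTT. Incubation: 30 min preincubation with enzyme, 25 min cleavage at room temperature. Measured by: fluorescence, ex 355 nm, em 460 nm. Read-out basis: percent inhibition. Control set: wells without proteasome as full block, compound-free enzyme plus substrate as uninhibited.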
MLL AF4-AF9 inh – MLL-AF4/AF9 protein interaction inhibition. P42568. actives 0.47% (n = 350,000). inhibition, % at 10 µM. AlphaScreen, biotin-AF4 peptide binding to FLAG-AF9;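 active = every replicate reaching a set inhibition limit, whatever the replicate mean, cut at about 25% in these data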;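 note: 0% = plate neutral control median and 100% = total signal loss; the record names both 10 and 1 µM as test concentration; the first replicate is given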
Target sequence (P42568 whole entry, looked up): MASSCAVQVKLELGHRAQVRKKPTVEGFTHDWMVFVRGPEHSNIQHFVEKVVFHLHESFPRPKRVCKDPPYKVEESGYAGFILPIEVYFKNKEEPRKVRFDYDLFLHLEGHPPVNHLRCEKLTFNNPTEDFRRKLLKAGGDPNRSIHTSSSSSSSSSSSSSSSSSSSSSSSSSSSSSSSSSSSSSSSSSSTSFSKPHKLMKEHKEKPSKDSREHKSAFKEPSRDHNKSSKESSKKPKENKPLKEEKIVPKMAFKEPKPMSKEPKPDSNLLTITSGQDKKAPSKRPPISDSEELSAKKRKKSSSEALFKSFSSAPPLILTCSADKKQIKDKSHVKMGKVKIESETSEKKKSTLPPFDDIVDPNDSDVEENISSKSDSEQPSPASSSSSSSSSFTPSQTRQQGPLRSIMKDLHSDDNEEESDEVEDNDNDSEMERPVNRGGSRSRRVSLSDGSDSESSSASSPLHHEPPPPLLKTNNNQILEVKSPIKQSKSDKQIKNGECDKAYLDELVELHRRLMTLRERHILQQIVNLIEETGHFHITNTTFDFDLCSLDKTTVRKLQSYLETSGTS
Beta cell apopt – blocks beta cell apoptosis; INS-1E cytokine-induced death, ATP luminescence, 48 h; percent of positive-control rescue, neutral wells zero; protection from apoptosis, % (concentration not given with the values); actives 0.8% (n = 300,000);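 active = all replicates at 75% or more, or half of them and the mean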;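 note: 0% = cytokine-treated negative control wells and 100% = positive control rescue; higher means more ATP so stronger rescue from cytokine killing; wells of about 40 µL received 100 nL stock; the first replicate is given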
FGF22 binding – binders of recombinant human FGF22 by thermal shift. Q9HCT0. SYPRO orange fluorescence; percent of sucrose octasulfate shift, DMSO zero. calls only at 9.99 µM. actives 1.5% (n = 340,000). AID 651658;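 active = melting point raised past a set limit in the mean and every replicate; three in four hits are not shown here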
Target sequence (Q9HCT0 whole entry, looked up): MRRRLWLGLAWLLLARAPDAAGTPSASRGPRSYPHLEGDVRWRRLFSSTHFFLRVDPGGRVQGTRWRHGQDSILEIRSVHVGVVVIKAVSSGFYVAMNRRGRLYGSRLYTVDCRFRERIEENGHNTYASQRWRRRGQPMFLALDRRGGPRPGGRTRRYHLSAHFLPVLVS
T cruzi repl – blocks replication of Trypanosoma cruzi; actives 1.4% (n = 300,000); inhibition, % (no concentration beside the values); T. cruzi beta-gal in NIH3T3, luminescence, 90 h; AID 1885;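 active = mean inhibition across valid replicates above about 55%, limit read from the data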;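 note: signal also drops with host cell toxicity which is not excluded here; 0% = plate median of DMSO wells and 100% = zero luminescence signal; higher percent means less beta-gal luminescence so fewer parasites; stock transfer was 50 nL into about 50 µL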
Ecoli rRNA inh OD600 – further read-out of Ecoli rRNA inh, marked with its call; OD600 change, %; measured here: OD600 growth;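 optical density of the mix in the first replicate; 0 = DMSO median and -100 = no signal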
Ecoli rRNA inh RFP – recorded beside Ecoli rRNA inh, whose call it bears; RFP signal change, %; measured here: RFP humanized mutant strains;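 first replicate; 0 = DMSO median and -100 = no signal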
Starred values were filed as active, the others as inactive; i = inactive; x = not tested or not shown. An excerpt. The share of hits here may be higher or lower than overall.

SMILES	Ecoli rRNA inh	Ecoli rRNA inh OD600	Ecoli rRNA inh RFP	A1 inh	Ecoli growth	UCH37 DUB inh	MLL AF4-AF9 inh	Beta cell apopt	FGF22 binding	T cruzi repl
Cc1ccc(CN2CC(=O)N3[C@H]4c5cc(C)ccc5OC[C@@H]4[C@H](c4ccccc4)[C@]3(C)C2=O)cc1	16	2	8.6	1.0	x	2.5	4.0	15	i	x
CC(NCCC(Cc1ccccc1)c1ccco1)c1ccccc1 (centres undefined)	-8	-8	10	1.6	0.69	3.2	-1.2	1	i	42
Cc1ccc(C)c(NC(=O)CN(C)C(=O)c2ccccc2OCc2ccc(Cl)cc2)c1	-5	-6	-2.0	0.8	0.62	5.4	4.0	4	i	-1
N#CCCN(C(=O)COC(=O)c1ccc(S(=O)(=O)N2CCCC2)cc1)c1cccc(Cl)c1	6	5	4.1	-0.5	0.66	3.8	-1.3	-2	i	x
O=C(Nc1nnc(-c2ccccc2F)s1)C1CCCO1 (centres undefined)	x	x	x	-2.7	0.71	0.2	x	-5	x	-5
Cc1nn(-c2ccccc2)c(C)c1/C=N/NC(=O)c1cccs1	10	28	-7.1	-0.4	x	x	-4.5	x	i	-11
CCC(=O)N1CCc2cc(Br)cc(S(=O)(=O)N3CCN(C(=O)c4ccco4)CC3)c21	x	x	x	1.6	0.7	-1.4	x	-4	x	11
CNC(=O)CN1C(=O)NC(c2ccccc2)(c2ccccc2)C1=O	4	11	-0.6	-0.1	0.65	0.3	0.6	6	i	-27
O=C(NCC(=O)N1CCN(c2ccccc2)CC1)c1ccc(Br)o1	0	-2	-3.2	0.3	0.73	4.4	1.9	-2	i	3
O=C(NC1CCCCC1)c1cc(-c2ccc(O)cc2)on1	x	x	x	-0.7	0.67	4.2	-0.4	6	i	0
CC1CCCCC1N=C1NC(C)(C)CS1 (centres undefined)	12	8	-1.0	0.1	0.61	5.5	6.8	1	i	4
CSc1ncccc1C(=O)N1CCCC(CCC(=O)NCc2ccc(F)c(F)c2)C1 (centres undefined)	2	-4	2.2	-0.8	x	x	-6.2	-10	i	2
O=C(CNc1ccc(Cl)cc1)NNC(=S)NCc1ccccc1	-56	-76	-13	0.0	0.71	4.1	-0.9	6	i	10
O=C(CSc1nc(-c2ccccc2)cs1)N1CCc2ccccc21	x	x	x	0.1	0.74	0.4	x	-3	x	-4
CCN(CC(=O)Nc1ccccc1OC)C(=O)COc1ccc(C#N)cc1	5	0	5.4	x	0.64	2.9	-0.5	x	i	x
O=C(c1ccc(COc2ccccc2Br)o1)N1CCCCCC1	-30	-27	-12	1.5	0.69	3.3	-2.2	23	x	16
COC(=O)c1oc(-c2ccc(Cl)cc2)nc1C	7	9	-0.7	0.3	0.65	4.2	0.1	6	i	2
COc1ccc(-c2ccc(/C=C3\C(=O)N(c4ccccc4)N=C3c3ccccc3)o2)c([N+](=O)[O-])c1	x	x	x	0.2	0.75	5.9	x	0	x	-14
Cc1cc(NC(=O)CCC(=O)N(Cc2cccnc2)C(C(=O)NC(C)(C)C)c2ccccc2Cl)no1 (centres undefined)	5	4	0.4	-0.9	0.65	-0.8	-3.7	-2	i	6
Cc1ccc(CN2CCN(/N=C/c3ccc(Cl)c([N+](=O)[O-])c3)CC2)cc1	-23	-24	-2.9	0.0	x	x	8.6	x	i	62*
Cc1cccc(Nc2nc(N)nc(CSc3nccc(C)n3)n2)c1	x	x	x	0.0	0.72	4.3	x	-2	x	-4
COc1cc(NC(=S)NC(=O)c2c(OC)cccc2OC)ccc1NC(=O)c1cccs1	x	x	x	0.3	0.68	1.1	x	6	x	6
NC(=O)CC(NC(=O)Cc1ccc(Br)cc1)c1ccc(NCc2cc(F)ccc2F)c([N+](=O)[O-])c1 (centres undefined)	9	5	-5.4	-1.1	0.71	1.6	1.0	3	i	8
Cc1cccc(C)c1NC(=O)/C(=C/c1ccco1)c1ccccc1	x	x	x	0.2	0.77	5.0	x	-9	x	-1
CC(NC(=O)C1CCC(C)(C(=O)O)C1(C)C)c1ccccc1 (centres undefined)	11	9	-2.8	1.0	0.65	2.1	-1.6	-6	i	-6

Pulled one by one from above (4):
SMILES	Ecoli rRNA inh	Ecoli rRNA inh OD600	Ecoli rRNA inh RFP	A1 inh	Ecoli growth	UCH37 DUB inh	MLL AF4-AF9 inh	Beta cell apopt	FGF22 binding	T cruzi repl
CC(NC(=O)C1CCC(C)(C(=O)O)C1(C)C)c1ccccc1 (centres undefined)	11	9	-2.8	1.0	0.65	2.1	-1.6	-6	i	-6
Cc1cccc(Nc2nc(N)nc(CSc3nccc(C)n3)n2)c1	x	x	x	0.0	0.72	4.3	x	-2	x	-4
CNC(=O)CN1C(=O)NC(c2ccccc2)(c2ccccc2)C1=O	4	11	-0.6	-0.1	0.65	0.3	0.6	6	i	-27
O=C(NC1CCCCC1)c1cc(-c2ccc(O)cc2)on1	x	x	x	-0.7	0.67	4.2	-0.4	6	i	0

Continuation:
SMILES	Ecoli rRNA inh	Ecoli rRNA inh OD600	Ecoli rRNA inh RFP	A1 inh	Ecoli growth	UCH37 DUB inh	MLL AF4-AF9 inh	Beta cell apopt	FGF22 binding	T cruzi repl
Cc1ccc2[nH]c3c(NCc4ccccc4)ncnc3c2c1	-52	-67	-9.7	0.9	0.46*	-16	2.6	29	i	-6
CN1CCN(S(=O)(=O)c2ccc(CNC(=O)c3ccccc3)s2)CC1	16	24	-0.3	0.3	0.7	0.7	-4.3	-6	i	-5
CCCc1cc(=O)[nH]c(SCC(=O)c2c[nH]c3ccccc23)n1	22	13	2.1	0.1	0.69	5.2	1.4	2	i	9
Cc1ccc(NCc2nnc(SCC(=O)N3c4ccccc4Sc4ccccc43)o2)c(C)c1	x	x	x	0.2	0.72	2.6	x	0	x	27
COC(=O)C1=C(C)N(C(C)c2ccccc2)C(=O)C1 (centres undefined)	10	-1	2.0	0.1	0.7	4.8	-13	x	i	1
CCc1cccc(NC(=O)CSc2nnc(Cc3ccc(OC)cc3)c(=O)[nH]2)c1	-3	-1	-0.3	-0.1	0.71	1.6	-1.2	x	i	-2
CCOc1ccc(C(=O)NCC2(c3ccccc3)CCOCC2)cc1	x	x	x	-0.2	0.73	5.5	0.0	-9	i	-4
CCc1ccc(C(=O)NNC(=O)CN2C(=O)NC(CC)(c3ccccc3)C2=O)cc1 (centres undefined)	3	10	-0.8	1.1	0.69	3.4	5.0	x	i	0
CCOc1ccc(CCNC(=O)c2ccc(=O)[nH]c2)cc1OCC	19	21	3.2	0.2	0.72	5.6	-2.0	-2	i	1
COc1cc(NC(=O)c2cccnc2)c(OC)cc1NC(=O)c1ccc(Br)cc1	x	x	x	0.0	0.73	-3.7	x	5	x	5
CCOC(=O)c1ccc2[nH]c(C)c(C)c2c1	x	x	x	-0.3	0.71	-1.9	x	0	x	9
CC(C)NS(=O)(=O)c1ccc(NCCCn2ccnc2)c([N+](=O)[O-])c1	5	5	1.3	0.5	0.69	-0.4	2.6	0	i	4
N#Cc1cnc(SCC(=O)N2CCCCC2)nc1N	17	13	3.3	-0.2	x	x	-1.3	-2	i	-15
Cc1cccc(NC(=O)C2CCCCN2S(=O)(=O)c2ccccc2)c1C (centres undefined)	-11	-51	-13	1.7	0.7	4.0	0.4	-2	i	x
O=C(CCSc1ccccc1)OCn1nnc2ccccc2c1=O	11	2	1.2	2.1	0.68	-1.2	-1.7	-18	i	0
Cc1nn2c(-c3cccc(NC(=O)c4ccco4)c3)nnc2c2ccccc12	x	x	x	0.6	0.69	-2.4	x	14	x	11
CC[N+](C)(C)CC/C=C1/c2ccccc2Sc2ccc(Cl)cc21	18	-3	5.0	-0.6	0.67	1.5	0.3	4	i	16
COc1ccccc1NC(=O)N1CCCC1C(=O)NC12CC3CC(CC(C3)C1)C2 (centres undefined)	x	x	x	-0.3	0.69	0.4	x	0	x	12
CC(C)S(=O)(=O)c1csc(C(=O)NN)c1-n1cccc1	8	6	7.2	0.4	0.67	0.7	4.9	-8	i	-1
NS(=O)(=O)c1cccc(NC(=O)C(Cc2ccccc2)NC(=O)c2ccccc2)c1 (centres undefined)	-1	-2	2.5	0.8	0.7	1.2	-2.6	1	i	6
CCOc1cc(/C=N/NC(=O)C2CC2)ccc1OC(C)C	21	12	1.6	-1.2	x	x	-1.6	-4	i	x
O=C(CN1C(=O)c2ccccc2S1(=O)=O)NCc1ccc2c(c1)OCO2	15	0	-2.3	-0.5	0.69	4.1	4.1	-5	i	-5
O=C1c2ccccc2C(=O)N1CSc1ncccn1	x	x	x	0.9	0.65	0.5	x	7	x	-21
c1ccc(-c2nc(NCc3ccco3)c3ccccc3n2)cc1	x	x	x	-1.6	0.65	3.8	x	-1	x	42
CCOc1cc(C(=S)N2CCOCC2)ccc1OS(=O)(=O)c1ccc(Br)cc1	-13	-14	-2.6	-0.2	x	x	6.5	3	i	20

(cont.)
SMILES	Ecoli rRNA inh	Ecoli rRNA inh OD600	Ecoli rRNA inh RFP	A1 inh	Ecoli growth	UCH37 DUB inh	MLL AF4-AF9 inh	Beta cell apopt	FGF22 binding	T cruzi repl
CCOC(=O)C1=C(N)OC2=C(C(=O)CCC2)C1c1ccc(C)s1 (centres undefined)	11	6	-1.4	0.0	0.69	4.8	x	-5	x	6
CCN1C(=O)C2(C(C#N)=C(N)Oc3n[nH]c(-c4ccc(Cl)cc4)c32)c2ccccc21 (centres undefined)	x	x	x	-0.8	0.67	6.7	x	-4	x	1
NS(=O)(=O)c1ccc(NC(=O)CN2CCc3ccccc32)cc1	x	x	x	3.2	x	x	-3.2	2	i	2
Cc1c(C(=O)OCC(=O)N2CCN(c3ccccc3)CC2)oc2ccccc12	-1	-12	0.6	-1.6	0.71	2.1	-2.2	-1	x	x
COc1ccc(CNC(=O)CNC(C)c2ccc(F)cc2)cc1 (centres undefined)	7	3	-0.2	-0.2	0.67	5.8	1.5	-5	i	8
COc1cccc(OC)c1OCCCCCc1c(C)n[nH]c1C	x	x	x	0.5	0.7	6.3	x	1	x	-3
O=C(c1cccc(Cl)c1)N1CCN(c2ccc(N3CCOCC3)nn2)CC1	10	7	4.1	-0.1	x	x	-0.1	2	x	3
CC1=Nc2ccccc2/C1=C\c1sc(Nc2ccc(C)cc2)nc1O	-1	2	12	0.0	x	x	1.1	42	i	29
CC(C)(CNC(=O)c1ccc(NS(=O)(=O)c2ccc(Br)cc2)cc1)N1CCOCC1	-2	-4	1.7	0.1	0.7	3.9	-0.6	9	i	-12
c1ccc(OCCN2CCN(C(c3ccccc3)c3ccccc3)CC2)cc1	-25	-58	12	0.0	0.64	1.1	4.9	x	i	32
O=C(CSC1CN(C(c2ccccc2)c2ccccc2)C1)N/N=C/c1ccccc1	-18	-25	-2.4	0.3	x	x	13	-3	i	-7
CC1CCCN(c2ccc(C(=O)NCc3ccccc3)cn2)C1 (centres undefined)	-32	-35	-1.5	1.4	0.69	2.7	-0.5	-2	i	25
O=C(O)C1CCCCN1S(=O)(=O)c1ccc2ccccc2c1 (centres undefined)	x	x	x	0.5	0.74	-1.0	x	-3	x	-5
CCN(Cc1ccncc1)C(=O)c1ccc(C)o1	2	6	-1.7	-0.4	0.69	-1.1	0.1	-6	i	-1
Cc1ccc2occ(C3N[C@H](C(=O)O)CS3)c(=O)c2c1 (some centres undefined)	x	x	x	0.9	x	-1.8	x	-2	x	-16
